RN4220 kill: kills Staphylococcus aureus RN4220; 330,000 tested, 0.33% active; inhibition, % (no concentration beside the values); S. aureus RN4220 growth, OD600, 16 h;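 active means z-score of -3 or lower and OD600 up to 0.18 on both plates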;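 further: plate controls were untreated cells for no effect and reference antibiotic for full effect; stock transfer was 100 nL into about 80 µL; one replicate is shown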
Autofluor counter: counter-screen for toxin protease inhibitors: compound fluorescence; compound autofluorescence counterscreen, microsphere flow cytometry; active compounds read high; fluorescence intensity (no concentration beside the values); 360,000 tested, 3.1% active;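 active means at least 3 SD above the mean of all compounds, about 16000 in these data; inconclusive means too few beads counted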;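 further: 100 nL of 1 mM stock went into each well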
Sa ugtP lethal: compounds lethal to S. aureus RN4220 ugtP deletion mutant; growth inhibition, % (concentration not given with the values); AID 1259309; OD600 growth, 16 h; some inactives read as strong as hits; 330,000 tested, 0.54% active;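 active means z-score under -3 and OD600 up to 0.15 on both plates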;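 further: plate controls were untreated wells for no effect and antibiotic for full effect; wells of about 80 µL received 100 nL stock; the first replicate is given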
BJeLR viability: kills HRASV12-expressing BJeLR cells | BJeLR (HRASV12) viability, CellTiter-Glo ATP luminescence, 48 h; reference of the scale not given here | AID 1554 | 300,000 tested, 0.17% active | inhibition, % (no concentration beside the values);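 active means replicate mean above 50%; inconclusive means above 50% but judged a plate artefact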;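 further: 50 nL library stock added to about 25 µL; numbers are from one replicate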
PrP UTR inh: suppresses PrP 5' UTR mRNA reporter expression. cell-based PrP 5' UTR mRNA reporter, plate reader. inhibition, % (concentration not given with the values). 340,000 tested, 0.35% active;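 active means every replicate at 50% or more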;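 further: 0 = median of the neutral control wells; tested in H4 reporter cells; numbers are from one replicate; inactives centre near -14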
Mtb hypoxia rep: Mtb hypoxia fluorescent reporter inhibition. AID 1159583. M. tuberculosis hypoxia-regulated fluorescent reporter, fluorescence. fluorescence inhibition, % (test concentration not listed). 300,000 tested, 0.1% active;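 active means 35 to 45% if threefold the growth effect, above 45% if 1.5-fold the growth effect; inactive means the rest, general growth blockers included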;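 further: wells of about 50 µL received 100 nL stock; 0% = vehicle wells and 100% = reference inhibitor wells; whole bacteria with a GFP reporter of the hypoxia response; strong numbers were not always called active; many hits fall short of the cut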
Mtb hypoxia rep growth: also measured in Mtb hypoxia rep; calls as there; growth inhibition, %; measured here: M. tuberculosis growth (absorbance);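 0% = vehicle and 100% = reference antibiotic; read after six days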
* marks the source's active call; other numbers are inactive results; ? = inconclusive; . = not tested or not shown; & = joins results of further samples.

molecule | RN4220 kill | Autofluor counter | Sa ugtP lethal | BJeLR viability | PrP UTR inh | Mtb hypoxia rep | Mtb hypoxia rep growth
C=CCc1ccccc1OCCNCCCOC | -1.2 | 3149 | 0 | -10 | -10 | 7 | -3
O=S(=O)(c1ccc2nc(-c3ccccc3)[nH]c2c1)N1CCN(c2ccc(Cl)cc2)CC1 | 8.0 | 2696 | -16 | -2 | -26 | 2 | 1
O=C(NCc1ccc2c(c1)OCO2)C1CCCN1C(=O)Nc1cccc(Cl)c1 (centres undefined) | 3.7 | 6911 | 1 | 3 | -17 | 5 | 4
CCOCCCNC(=O)Cn1nc(Cc2ccncc2)c2ccccc2c1=O | 4.7 | 3735 | 7 | -12 | -9 | -3 | -6
Cc1ccc(-c2nc3ncccn3c2NC2CCCCC2)o1 | 4.5 | 3721 | 2 | 1 | -16 | 4 | 14
CC1CCN(C(=O)CSc2nc3cccnc3n2C)CC1 | 3.7 | 3128 | -10 | -13 | -1 | . | .
Cc1ccc(CC2SC(=Nc3ccccn3)NC2=O)cc1 (centres undefined) | 3.5 | . | -2 | . | . | 0 | 12
COc1ccc(C(C(=O)NC2CCCC2)N(C(=O)Cc2cccs2)C2CC2)cc1OC (centres undefined) | 2.6 | 5686 | -2 | -3 | -3 | 19 | 5
CCCc1nc2ccc(NC(=O)c3ccco3)cc2c(=O)n1Cc1ccccc1Cl | -2.1 | 4809 | -4 | -3 | -14 | . | .
COc1cccc(N(C(=O)c2snc(C(N)=O)c2N)C(C(=O)NCC2CCCO2)c2c[nH]c3ccccc23)c1 (centres undefined) | 4.4 | 3123 | -10 | -2 | -8 | 16 | 6
CCOC(=O)CNC(=O)c1cnc(Nc2ccccc2OC)c2ccccc12 | -0.8 | 4198 | -5 | -5 | -29 | 16 | 8
CCCCNC(=O)c1ccccc1Cl | 9.2 | 8781 | -2 | 4 | -14 | . | .
CC(=O)c1sc2nc(C)cc(C)c2c1N | -0.3 | 21807* | 2 | -3 | -97 | -7 | 6
COc1cccc(CNC(=O)c2ccc(CS(=O)(=O)Cc3ccccc3C)o2)c1 | 0.0 | 5456 | 2 | 2 | 1 | -6 | 11
CC(=O)N(Cc1ccccc1)Cc1cn(CCC#N)nc1-c1cccc([N+](=O)[O-])c1 | 0.5 | 2023 | -5 | -5 | -10 | -6 | -6
COc1c2ccoc2nc2c(OC)c(OCC(O)C(C)(C)O)ccc12 (centres undefined) | 3.2&1.6 | 2518 | -2&2 | . | -8 | 7 | -7
Cc1cc(N2CC(C(=O)NCc3cccs3)CC2=O)ccc1C(C)C (centres undefined) | -1.2 | 4288 | 3 | 3 | -18 | . | .
Cc1ccc(OCC(=O)c2cc(C)n(Cc3cccs3)c2C)c([N+](=O)[O-])n1 | 2.7 | 5948 | 2 | -2 | 21 | 10 | 13
CCn1c(SCC(=O)c2c(N)n(C3CC3)c(=O)[nH]c2=O)nc2cc(S(N)(=O)=O)ccc21 | 2.9 | 3837 | 2 | . | -38 | 0 | -6
O=C(Nc1ccncc1)Nc1ccc(F)cc1 | 0.5 | 5959 | -2 | 10 | 7 | -4 | -3
O=C1NC(=O)N(c2ccc(F)cc2)C(=O)/C1=C/c1ccsc1 | 2.1 | 2598 | 12 | 1 | -24 | 1 | 5
CC(=O)N1CCc2cc(S(=O)(=O)NCCCN3CCN(Cc4ccccc4)CC3)ccc21 | 1.3 | 3124 | 8 | 7 | -21 | . | .
O=C(CN1C(=O)c2ccccc2S1(=O)=O)NC1CC2CCC1C2 (centres undefined) | 0.1 | 5444 | 4 | 8 | -3 | . | .
Cc1ccc(-c2nnc(Nc3ccccc3)o2)cc1 | 8.4 | 8202 | -4 | 12 | -30 | 18 | 2
CN(C)C(=S)NCc1ccccc1 | -1.3 | 2422 | -2 | -2 | -12 | . | .
COc1ccc(S(=O)(=O)Nc2ccc3c(c2)COC3=O)cc1OC | 37 | 10180 | 21 | -3 | -16 | 15 | 2
Cn1c(Cn2cnc([N+](=O)[O-])n2)nnc1SCC(=O)Nc1ccc(Br)cc1 | 22 | 4317 | -8 | 9 | -14 | . | .
O=C(CN(Cc1cccs1)C(=O)c1csnn1)NC1CCCC1 | 6.7 | 9185 | 2 | -3 | -24 | 16 | 4
C=CCn1c(O)c(C(C)=Nc2ccc3c(c2)CCC3)c(=O)[nH]c1=O | 0.5 | . | 15 | 5 | -12 | 9 | -3
COC(=O)c1c(Cl)c2n3ccccc3c(C)c(-c3ccccc3)c-2c1C(=O)OC | 9.9 | 7894 | -13 | 9 | -5 | 9 | 11
CCNc1nc(Oc2ccc(F)cc2)cc(C(F)(F)F)n1 | 2.2 | 4556 | 10 | 3 | -19 | 8 | 5
CCOc1ccc(NC(=O)C(=O)NCC2CCCN2CC)cc1 (centres undefined) | 2.2 | 6606 | 6 | 3 | -16 | 0 | -1
CCCCn1c(NCc2ccncc2)nc2ccccc21 | -0.5 | 5241 | -2 | 6 | 7 | 12 | 1
Cc1cc(C)cc(C(=O)NN2CCOCC2)c1 | 4.9 | 7533 | -2 | -4 | -24 | 3 | 2
COC(=O)C1=C(C(=O)OC)C2N(C)c3ccccc3[C@@]23CC(C(=O)OC)N(C(=O)c2ccco2)C3=N1 (some centres undefined) | 5.7 | . | 2 | . | . | 17 | 7
CC(c1ccco1)N(C(=O)Nc1ccc(Cl)cc1)c1ccccn1 (centres undefined) | -9.3 | 3678 | -11 | -1 | -24 | 3 | 2
O=C(CCCC(=O)N1CCN(c2cccc(Cl)c2)CC1)c1ccccc1 | -0.4 | 5996 | 0 | -6 | -31 | . | .
O=C(Cc1cccc(NC(=O)C2CCCN(C(=O)C3CCC3)C2)c1)Nc1ccc(C(=O)N2CCCCC2)cc1 (centres undefined) | 2.3 | 2883 | 6 | . | -10 | -1 | 1
OCC[C@@H]1C[C@H](O)[C@@H](O)[C@@]2(CCCCO2)O1 | . | 3121 | . | -3 | -13 | . | .
O=C(Cn1nnc(-c2ccccc2)n1)NCc1cccs1 | -1.1 | 12566 | 4 | -6 | -33 | 10 | 13

The listing continues:
Structure	RN4220 kill	Autofluor counter	Sa ugtP lethal	BJeLR viability	PrP UTR inh	Mtb hypoxia rep	Mtb hypoxia rep growth
CCOc1ccc(N2C(=O)CC(N3CCN(C(=O)c4ccco4)CC3)C2=O)cc1 (centres undefined)	0.1	3553	1	4	-10	.	.
COc1ccc(NS(=O)(=O)c2cc(NC(=O)C3=NN(c4ccccc4)C(=O)CC3)ccc2C)cc1	3.9	3158	-3	.	10	-1	2
O=C(COC(=O)/C=C/c1ccccc1)NCc1ccc2c(c1)OCO2	-0.4	4043	-1	.	-26	4	-7
C=CCSC(=S)NC1CCS(=O)(=O)C1 (centres undefined)	1.7	2464	-3	1	-22	6	12
NC(=O)CSc1nnc(-c2cc(-c3ccc(Cl)cc3)nc3ccccc23)o1	-8.8	5118	-7	8	-2	2	10
Cc1cc(Nc2ccc(C)c(C)c2)n2nc(C)nc2n1	5.6	5666	9	-10	-29	.	.
CCCc1nnc(NC(=O)CN2CCN(C)CC2)s1	2.1	3218	6	2	-10	.	.
CCn1c(=O)c([N+](=O)[O-])c(NCc2ccco2)c2ccccc21	1.1	5883	-4	5	.	3	5
CC(C(=O)Nc1ccc(OCc2ccccc2)cc1)N1CCCC1 (centres undefined)	7.4	4246	1	-2	-35	16	-3
COc1ccc(-c2cc(C(F)(F)F)n3nc(C(=O)N4CCN(C(=O)c5ccco5)CC4)cc3n2)cc1	18	7876	21	-3	-6	8	16
CCn1c(=O)c([N+](=O)[O-])c(NC2CCS(=O)(=O)C2)c2ccccc21 (centres undefined)	1.8	5883	3	-4	-11	8	11
C=C[C@]1(C)C=C2CCC3[C@](C)(CCC[C@@]3(C)C(=O)O)C2CC1 (some centres undefined)	.	5543	.	7	-2	.	.
COc1ccc(C2/C(=C(/O)c3ccccc3)C(=O)C(=O)N2C)c(OC)c1 (centres undefined)	5.6	4258	1	-4	-16	2	10
Cc1ccccc1N1CCN(c2ccc(NC(=O)C3CCCCC3C(=O)O)cc2)CC1 (centres undefined)	14	1947	0	1	-10	-8	11
COC(=O)c1cccc(NC(=O)CCNC(=O)c2ccc([N+](=O)[O-])cc2)c1	4.3	10218	3	9	-28	7	7
Oc1ccc(N2CCN(C(c3cccnc3)c3nnnn3Cc3ccccc3)CC2)cc1 (centres undefined)	-2.2	10906	-1	-11	-17	-6	1
COc1ccc(C(=O)CSc2nc3ccccc3n2CC(=O)c2ccccc2)cc1	24	6139	-13	1	-23	4	8
CCOC(=O)C1=C(C)NC(=O)NC1c1ccc(OC)c(CN2CCOCC2)c1 (centres undefined)	-0.2	4787	-2	-1	-3	.	.
CC(C)NC(=S)NC(=O)/C=C/c1ccc(F)cc1	-0.4	2406	5	-23	-8	-3	17
CCCCN(CC)CCNC(=O)c1cn(C)c(=O)c2c1c1ccccc1n2C	2.0	4048	6	9	-14	-6	-3
CCc1ccc(-c2nc(CS(=O)CC(=O)O)c(C)o2)cc1 (centres undefined)	2.5	4799	-1	-2	-1	9	-2
N#CCC(=O)Nc1ccc(C(=O)OCC(=O)Nc2sc3c(c2C#N)CCCC3)cc1	-2.5	?	-16	.	4	-5	-1
COc1ccc(CC(=O)NN=Cc2ccc(Cl)s2)cc1OC	3.0	.	-6	.	.	-9	-4
CN(C)/C(CN1CCN(C=O)CC1)=C1\N=C(c2ccccc2)OC1=O	5.6	23334*	-2	4	-22	7	4
O=C1CNC(=S)N1CCCn1ccnc1	2.9	5022	-2	-14	-29	1	-6
COc1ccc(CCC(=O)Nc2c(C)n(C)n(-c3ccccc3)c2=O)cc1	4.4	3360	11	-4	-7	-1	1

Arranged by length of the SMILES (largest number first): part of the list above
Structure	RN4220 kill	Autofluor counter	Sa ugtP lethal	BJeLR viability	PrP UTR inh	Mtb hypoxia rep	Mtb hypoxia rep growth
COC(=O)c1cccc(NC(=O)CCNC(=O)c2ccc([N+](=O)[O-])cc2)c1	4.3	10218	3	9	-28	7	7
O=C(NCc1ccc2c(c1)OCO2)C1CCCN1C(=O)Nc1cccc(Cl)c1 (centres undefined)	3.7	6911	1	3	-17	5	4
CCOC(=O)CNC(=O)c1cnc(Nc2ccccc2OC)c2ccccc12	-0.8	4198	-5	-5	-29	16	8
CCOCCCNC(=O)Cn1nc(Cc2ccncc2)c2ccccc2c1=O	4.7	3735	7	-12	-9	-3	-6
COc1ccc(CC(=O)NN=Cc2ccc(Cl)s2)cc1OC	3.0	.	-6	.	.	-9	-4
CC(C)NC(=S)NC(=O)/C=C/c1ccc(F)cc1	-0.4	2406	5	-23	-8	-3	17
Cc1ccc(-c2nnc(Nc3ccccc3)o2)cc1	8.4	8202	-4	12	-30	18	2

Source: PubChem
